S aureus helic = blocks Staphylococcus aureus DNA helicase. purified S. aureus helicase, fluorescence unwinding assay; about half of the hits fall short of the stated cut. inhibition, %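 (tested at about 80 µM)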. 120,000 compounds, 0.05% hits;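 active = both duplicates at 50% or more, or one of them with a favoured structure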;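 also: 0% = mean of negative control wells and 100% = mean of positive control wells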
MgrA DNA FP = S. aureus MgrA-DNA binding modulation; 84,000 compounds, 0.13% hits; fluorescence polarization; inhibition, %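 (about 10 µg/mL by stock and volumes)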;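 active = above 50% in either of two replicates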;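 also: 0% = protein plus DNA without compound and 100% = DNA alone without protein; higher means less MgrA bound to DNA so lower polarization; one replicate is shown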
* = called active by the depositor; i = inactive; x = no result given. Not all compounds are listed, so the mix of outcomes need not match the whole.

S aureus helic,MgrA DNA FP,SMILES
x,2.0,CCCCc1ccc(S(=O)(=O)NC2CCS(=O)(=O)C2)cc1 (stereo not drawn)
3.0,-1.4,COc1ccccc1NCC(=O)n1nc(-c2ccccc2)cc1-c1ccccc1
7.0,x,CC1CN(CC(=O)NC(=O)NC(C)(C)C)CC(C)O1 (stereo not drawn)
3.0,-2.6,N#Cc1cc(Oc2ccccc2Cl)c(-n2nnc3ccccc32)cc1C#N
1.0,x,O=C(CSc1nccn1-c1ccccc1)NCc1ccc2c(c1)OCO2
-15.0,-2.4,Cc1ccc(S(=O)(=O)NCCC(=O)N2CCCCC2)cc1
x,-1.5,C/C(=N\O)c1ccc(Cl)c(C)c1
6.0,-3.2,CC(=O)N1CCN(c2nc(N3CCCCC3)nc(N3CCCCC3)n2)CC1
22.0,x,Cc1nc2sccn2c1-c1nc(-c2ccccc2)cs1
-33.0,x,COc1ccc(C2C(C(=O)N3CCN(c4ccccn4)CC3)CCC(=O)N2c2cc(OC)c(OC)c(OC)c2)cc1 (stereo not drawn)
x,0.0,COc1ccc(COc2cccnc2N)cc1
-2.0,x,Cc1cc(Oc2ccccc2)nc2ccc(O)cc12
12.0,x,CC(=O)Nc1ccc2nc(NC(=O)c3ccco3)sc2c1
14.0,x,O=C(/C=C/c1ccc(Br)s1)Nc1ccc(-n2cnnn2)cc1
24.0,x,CCc1nc2ccc(C(=O)N3CCCCCC3)cc2nc1CC
0.0,-9.1,CC1Cc2ccccc2N1C(=O)COc1ncnc2ccccc12 (stereo not drawn)
2.0,x,CC(C)(C)N/N=C/c1ccccc1I
19.0,x,CCOC(=O)c1sc(N(Cc2nc(-c3cccc(Cl)c3)oc2C)C(C)=O)c(C#N)c1C
-8.0,-1.4,CCOc1ccc(C(=O)CNC2=NCCC2)cc1
6.0,x,CCOC(=O)c1cc(C#N)c(=S)[nH]c1O
11.0,-1.1,CCN1CCN(CCC(=O)Nc2ccc(-c3ccccc3)cc2)CC1
-23.0,x,Fc1ccc(NC2=NCCCCC2)c(F)c1F
12.0,x,CCN(CC)Cc1cc(CCNC(=O)c2ccc(Cl)cc2)ccc1O
4.0,-1.4,COc1cccc(C2C3=C(CC(C)(C)CC3=O)Nc3[nH]c(=O)[nH]c(=O)c32)c1 (stereo not drawn)
-3.0,x,O=C(OC1CCOC1=O)C1CCN(C(=O)Nc2ccccc2)CC1 (stereo not drawn)
-14.0,0.5,Cc1ccc(S(=O)(=O)N(C)CC(=O)NCc2nc(-c3cccc(C)c3)no2)cc1
-305.0,x,Clc1nc(Nc2ccccc2)sc1/C=N/n1cnnc1
6.0,x,Cc1ccc(NC(=O)C(C)C)cc1
1.0,0.8,COC(=O)c1cc(S(N)(=O)=O)c(C)o1
1.0,-1.9,COc1ccc(CCn2c(=O)c3ccccc3n(CC(=O)N(C)c3ccccc3)c2=O)cc1OC
19.0,x,O=c1cc(CSc2ncccn2)c2cc3c(cc2o1)CCC3
0.0,-0.8,O=C(CN1CCCN(Cc2ccc(F)cc2Cl)C1=O)NC1CCCCCC1
-6.0,x,CC(=O)Nc1ccc(C2C3=C(Nc4c2c(=O)[nH]c(=O)n4Cc2ccccc2)c2ccccc2C3=O)cc1 (stereo not drawn)
3.0,3.5,N#Cc1ccccc1NC(=O)Nc1ccccc1
14.0,-0.6,CC1CCC/C(=C(/C#N)c2nc(-c3ccccc3O)cs2)C1 (stereo not drawn)
2.0,x,Cc1cccc(S(=O)(=O)C(C#N)c2nc3ccccc3nc2N2CCCC2)c1 (stereo not drawn)
-18.0,x,O=C(NC1CCCCCC1)C1c2ccccc2C(=O)N1Cc1cccnc1 (stereo not drawn)
-13.0,x,O=C(/C=C/Nc1ccc(S(=O)(=O)N2CCCCC2)cc1)C(F)(F)F
2.0,1.3,COc1ccc(C(=O)Nc2ccccc2C(=O)NC(C(=O)NCc2ccco2)C(C)C)cc1 (stereo not drawn)
5.0,3.6,CC(C)Oc1ccccc1CN
-25.0,x,COC(=O)CC(=O)CSc1cc(C)c(C#N)c2nc3ccccc3n12
4.0,x,COc1ccc(OC)c(C2C3=C(COC3=O)Nc3[nH]c(=O)[nH]c(=O)c32)c1 (stereo not drawn)
-12.0,x,O=C(/C=C/c1cccc(C(F)(F)F)c1)N1CCN(c2ccccc2F)CC1
x,-1.4,O=C1CC2(CCCC2)C(=O)N1C1CCN(c2nccc(C(F)(F)F)n2)CC1
-1.0,x,NC(=O)C1COc2ccccc2O1 (stereo not drawn)
-12.0,x,Cc1csc(SC(C)C(=O)NC(C)C)n1 (stereo not drawn)
-1.0,x,CC1CC2(C)CC(C(=O)O2)C1C(=O)O (stereo not drawn)
-27.0,x,Cc1nnc(N2CCCC(C(=O)NCc3ccco3)C2)c2nn(-c3ccccc3)c(C)c12 (stereo not drawn)
-15.0,x,Cc1ccc(S(=O)(=O)n2c(=O)oc3ccccc32)cc1
x,-0.6,CC(=O)OCC(=O)[C@@]1(O)[C@H](C)C[C@H]2[C@@H]3CCC4=CC(=O)C=C[C@]4(C)[C@@]3(F)[C@@H](O)C[C@@]21C
i,-4.4,CN(C)c1ccc(/C=C2\CCCC(=C3SCCS3)C2=O)cc1
6.0,12.6,CCN1CCN(C(=S)c2ccc(OCC(N)=O)c(OC)c2)CC1
-14.0,0.6,Cn1cnnc1SCC(=O)N1c2ccccc2Sc2ccc(Cl)cc21
-5.0,x,COc1ccccc1/C=C(\C#N)C(N)=C(C#N)C#N
x,-2.8,Cc1ccc2nc(-c3ccc(NC(=O)c4cccc(Cl)c4)cc3)sc2c1
-28.0,x,N/C(=N\OC(=O)c1ccc2nsnc2c1)c1nonc1N
x,2.0,COc1ccc2c(O)c(Cc3ccccc3)c(=O)[nH]c2c1
0.0,x,N=c1c2c3c(sc2ncn1Cc1ccccc1)CCCCC3
x,-2.1,COc1ccc(COCC(O)CS(=O)(=O)c2ccc(OC)c(OC)c2)cc1 (stereo not drawn)
-10.0,x,COc1ccccc1NC(=O)C(C)Sc1nc(C)cs1 (stereo not drawn)

Some of the entries so far, with values under each structure:
Values in the order – S aureus helic | MgrA DNA FP
CC1CC2(C)CC(C(=O)O2)C1C(=O)O (stereo not drawn)
 : -1.0 | x
CC(C)Oc1ccccc1CN
 : 5.0 | 3.6
CCN1CCN(CCC(=O)Nc2ccc(-c3ccccc3)cc2)CC1
 : 11.0 | -1.1
O=C(CN1CCCN(Cc2ccc(F)cc2Cl)C1=O)NC1CCCCCC1
 : 0.0 | -0.8
Clc1nc(Nc2ccccc2)sc1/C=N/n1cnnc1
 : -305.0 | x

Remaining list, next part:
S aureus helic,MgrA DNA FP,SMILES
-4.0,x,CCOc1ccc(C(C)NC(=O)c2c(C)noc2C)cc1OCC (stereo not drawn)
-1.0,-1.9,CCCNC(=O)Nc1ccc2c(c1)N(C)C(=O)c1ccccc1S2
3.0,x,COc1ccc(-c2noc(CC(=O)N(C)Cc3ccco3)n2)cc1
8.0,4.2,COC(=O)c1cccc(NC(=O)/C=C/c2ccc3c(c2)OCO3)c1
18.0,-1.8,O=C(O)c1cc(S(=O)(=O)Nc2ccc(O)cc2)ccc1O
7.0,-2.8,O=C1CCCC2=C1C(Cc1ccccc1)C1=C(CCCC1=O)O2
11.0,2.1,O=C(CCN1CCc2ccccc2C1)c1ccc2c(c1)OCCO2
-7.0,2.0,Cc1ccc(N2CCN(C(=O)C(c3ccccc3)c3ccccc3)CC2)cc1Cl
4.0,x,Cc1cc(Br)ccc1NCc1cccnc1
15.0,x,O=C(CC12CC3CC(CC(C3)C1)C2)N1CCCCC1
24.0,0.3,O=C(Nc1ccc(Br)cc1)C1CC1
x,0.6,O=[N+]([O-])c1cccc(-c2csc(-c3ccncc3)n2)c1
3.0,-0.5,C=CCN(Cc1nc(-c2ccc(Cl)cc2)no1)C(=O)C(C)(C)C
-10.0,14.8,c1ccc(-c2cc3cnsc3o2)cc1
-23.0,x,CCn1nccc1NC(=O)Cc1ccc(Cl)cc1
-13.0,1.6,O=C(Cc1cccc(C(F)(F)F)c1)OCC(=O)N1CCCCCC1
-21.0,x,O=C(O)C(Cc1ccccc1)N1C(=O)c2ccccc2C1=O (stereo not drawn)
x,0.3,O=C(NC1CC(O)c2sccc21)C(F)(F)F (stereo not drawn)
-19.0,3.5,O=C(O)C1C2C=CC(C2)C1C(=O)NCCCN1CCOCC1 (stereo not drawn)
x,-2.4,N#C/C(=C\Nc1cc(Cl)cc(Cl)c1)S(=O)(=O)c1ccccn1
-10.0,x,O=C(Nc1nccs1)c1cccc(S(=O)(=O)N2CCCC2)c1
-2.0,x,Cc1cc(-c2ccc(C)c(S(=O)(=O)N3CCCc4ccccc43)c2)on1
5.0,x,COc1cc(/C=C/C(=O)O)cc(S(=O)(=O)NCCO)c1OC
x,-0.8,CC(Oc1ccccc1)c1ccnn1S(C)(=O)=O (stereo not drawn)
-5.0,x,CC(C)NC(=O)Nc1ccc2snnc2c1
7.0,-1.8,COc1ccc(CCn2c3c(c(=S)[nH]c2=O)CCC3)cc1OC
20.0,x,Cc1ccc(Nc2nc(Oc3ccc(OCCOc4ccccc4)nn3)nc(N(C)C)n2)cc1
12.0,5.4,O=C(CC(C(=O)O)N(Cc1ccccc1)Cc1ccccc1)c1ccc(Cl)cc1 (stereo not drawn)
8.0,x,N#CC(C#N)=C(N)C(C#N)Cc1ccc(Cl)cc1 (stereo not drawn)
8.0,x,CC1=CC(C)(C)N(C(=O)CSc2nccn2C)c2cc(C)ccc21
-3.0,x,CSc1ccc(-c2nc(CSCC(=O)NC(C)C)c(C)o2)cc1
-112.0,x,CCN1CCN(C2=Nc3c(Cl)cc(Cl)c4cccc2c34)CC1
-2.0,2.3,COc1ccc(C=NCC2(c3ccccc3)CCCC2)c(OC)c1
-48.0,x,O=C1N/C(=C/c2ccc(-c3ccccc3)o2)C(=O)N1Cc1ccc(Br)cc1
x,-0.5,CC(C)c1ccc(NC2(C(N)=O)CCCCC2)cc1
25.0,x,CN(C)C(CNC(=O)c1ccc(Br)cc1)c1ccco1 (stereo not drawn)
1.0,4.0,O=C(C1CCN(S(=O)(=O)N2CCCCC2)CC1)N1CCCCC1
-15.0,x,CN1CCC(N(C)C(=O)c2ccc(Cl)c(S(=O)(=O)N3CCc4ccccc43)c2)CC1
x,-1.8,CCCCC1(O)C(=O)c2ccccc2N(c2ccccc2)C1=O (stereo not drawn)
-2.0,x,O=C1CC2(CCN(C(=O)Nc3ccccc3)CC2)Oc2ccccc21
x,-0.9,c1ccc(-c2nc(-c3cccnc3)cs2)cc1
-16.0,1.1,CCN(CC)c1nc2ccccc2s1
-15.0,2.1,O=C(NCCCc1ccccc1)C1CCCN(S(=O)(=O)N2CCCCC2)C1 (stereo not drawn)
x,-2.5,N#CCc1ccc(NC(=O)COCC(=O)O)cc1
4.0,x,COC(=O)c1oc2ccccc2c1O
-32.0,x,Cc1nc(C(=O)NNc2ccc(F)cc2)c(C(F)(F)F)o1
2.0,0.8,Cc1ccc2c(c1)c1nc3ccccc3nc1n2CC(=O)OCc1ccccc1
-7.0,x,O=C1CCCC2=C1C(c1ccc(OC(F)F)cc1)C1=C(CCCC1=O)N2
x,-0.1,c1ccc(COn2c(-c3ccccc3)nc3ncccc32)cc1
7.0,-1.3,C=C(CO)C1Cc2c(ccc3c(=O)c4c(oc23)COc2cc(OC)c(OC)cc2-4)O1 (stereo not drawn)
x,0.3,CN(C)C=Nc1nonc1-c1ccc(Cl)cc1
x,-2.5,COc1ccc(C2=N/C(=C\C(Br)=C\c3ccccc3)C(=O)O2)cc1OC
13.0,1.3,Cc1cc(C(=O)N2CCCCCC2)cs1
x,-1.2,COc1ccc(NC(=O)C2CC2)cc1OC1CCCC1
-6.0,0.1,O=C(c1cccs1)N1CCN(C/C=C/c2ccccc2)CC1
-19.0,x,CC1=C(C(=O)C(F)(F)F)CCC(=O)N1CCCN1CCCC1=O
3.0,1.3,CCCC(=O)N1CCN(c2ccc(NC(=O)c3cccc(C)c3OC)cc2Cl)CC1
-7.0,x,Cc1noc(C)c1CN1C(=O)NC2(CCCc3sccc32)C1=O (stereo not drawn)
-10.0,1.7,O=S(=O)(c1ccc(F)c(Cl)c1)N1CCN(Cc2ccc3c(c2)OCO3)CC1
-6.0,x,CNCc1ccc2ccccc2c1

More entries:
S aureus helic,MgrA DNA FP,SMILES
x,3.1,Nc1nc2nonc2nc1N
1.0,1.6,CC(C)N(C(=O)c1cccs1)C(C)C
7.0,-3.5,Cc1cc(C)nc(NCC(C)c2ccccc2)n1 (stereo not drawn)
25.0,1.8,CCCN1C(=O)c2ccc(-c3nc4cc(Cl)ccc4c(=O)o3)cc2C1=O
7.0,4.7,CC(=O)Nc1ccc2nc(NC(=O)c3cc4ccccc4o3)sc2c1
-2.0,1.3,COc1ccc(C2C(C#N)=C(N)OC3=C2C(=O)CCC3)cc1 (stereo not drawn)
7.0,x,CC1CN(C(=O)COC(=O)c2n[nH]c3ccccc23)CC(C)O1 (stereo not drawn)
9.0,x,O=C(CC1Oc2ccccc2NC1=O)NCCc1ccccc1 (stereo not drawn)
-2.0,x,CC(=O)Nc1c(C(=O)N2CCN(C)CC2)oc2ccccc12
-38.0,x,Cn1cccc1C(=O)OCC(=O)c1cc2ccccc2o1
-7.0,x,CN1/C(=C\C(=O)CSc2nnc(-c3ccccc3)o2)C(C)(C)c2ccccc21

Compound profiles, from the list above. Order of screens: S aureus helic, MgrA DNA FP
Profile of `CCOc1ccc(C(C)NC(=O)c2c(C)noc2C)cc1OCC` (stereo not drawn) = -4.0, x
Profile of `O=S(=O)(c1ccc(F)c(Cl)c1)N1CCN(Cc2ccc3c(c2)OCO3)CC1` = -10.0, 1.7
Profile of `Cc1nnc(N2CCCC(C(=O)NCc3ccco3)C2)c2nn(-c3ccccc3)c(C)c12` (stereo not drawn) = -27.0, x
Profile of `CC(=O)Nc1c(C(=O)N2CCN(C)CC2)oc2ccccc12` = -2.0, x
Profile of `COc1ccc(C=NCC2(c3ccccc3)CCCC2)c(OC)c1` = -2.0, 2.3

Compound activity deposited in PubChem BioAssay by ICCB-Longwood Screening Facility, Harvard Medical School.
